Assay outcomes as filed in PubChem.
HCMV UL50-53 inh – inhibitors of HCMV UL50-UL53 interaction, biochemical, HTRF. normalized percent inhibition. HCMV UL50-UL53 nuclear egress complex (human cytomegalovirus). inhibition, % (no concentration beside the values). hit rate 0.15% among 190,000. AID 1918969, 2023;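 active = both replicates at 50% or more, plus weaker picks with an unusually low signal ratio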;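 also: stock transfer was 100 nL into about 20 µL; 0% = negative control wells and 100% = wells with untagged competitor protein; inactives centre near -12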
GIV Gai3 FP – inhibitors of GIV peptide binding to Galpha-i3, primary screen, biochemical, fluorescence polarization, FITC-GIV GBA peptide, rat Galphai3; Guanine nucleotide-binding protein G(i) subunit alpha-3 (Rattus norvegicus), P08753; 90 min; active compounds read low; scaled: aluminum fluoride 0%, vehicle 100%; percent of control (FP), % (no concentration beside the values); hit rate 0.42% among 210,000;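 active = replicate mean at 85% of control or lower, very high polarization wells dropped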;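 also: wells of about 15 µL received 100 nL stock; the first replicate is given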
Target sequence (P08753 whole entry, looked up): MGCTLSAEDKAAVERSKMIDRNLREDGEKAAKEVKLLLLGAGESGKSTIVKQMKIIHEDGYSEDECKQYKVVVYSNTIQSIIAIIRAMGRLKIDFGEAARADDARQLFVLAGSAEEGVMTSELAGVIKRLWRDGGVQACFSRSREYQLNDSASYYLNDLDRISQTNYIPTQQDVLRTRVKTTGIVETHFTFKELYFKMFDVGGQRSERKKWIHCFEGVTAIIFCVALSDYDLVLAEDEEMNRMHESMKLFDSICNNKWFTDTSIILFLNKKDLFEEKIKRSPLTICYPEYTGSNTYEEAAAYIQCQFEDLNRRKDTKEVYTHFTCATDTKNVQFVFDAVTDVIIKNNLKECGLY
Sa growth 42C – S. aureus growth inhibition at 42 and 30 °C, primary screen, LtaS inhibitor project, RN4220, two temperatures; OD600, 20 h, 42 °C; active compounds read low; AID 720641, 2013; relative growth, % (test concentration not listed); hit rate 0.53% among 170,000;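 active = growth at 42 °C up to 50% and 20 or more points under that at 30 °C, or under 10% at both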;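 also: 300 nL library stock went into each well; scaled to the means of positive and negative controls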
Sa growth 42C second temp – further read-out of Sa growth 42C, marked with its call; relative growth, %; measured here: growth at 30 °C;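 optical density after 20 h as mean of two plates; 100% = untreated growth and lower means inhibition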
Starred values were filed as active, the others as inactive; · = no result given; & = joins results of further samples.

Results follow in this order: GIV Gai3 FP | Sa growth 42C second temp | Sa growth 42C | HCMV UL50-53 inh
Nc1ccn(C2OC(CO)C(O)C2O)c(=O)n1 (stereo unspecified)
  109&102 | · | · | 8&12&-56
O=C1c2ccccc2C(=O)N1CCCc1nc2ccccc2c(=O)n1CCCn1ccnc1
  100 | · | · | -17
CC(C)C(NC(=O)c1ccc(C2SCC(=O)N2Cc2ccco2)cc1)C(C)C (stereo unspecified)
  106 | 79 | 94 | ·
COC(=O)c1ccc(-c2cn3cccnc3n2)cc1
  102 | 91 | 109 | -1
CC1(C)CC(CC#N)(c2ccccc2)CCO1 (stereo unspecified)
  101 | 95 | 105 | -12
CCC(=O)Nc1c(Cl)nc(C)c(Cl)c1C
  · | 89 | 78 | 11
Cc1ccc(N/C(=C/C(=O)c2ccccc2)C(=O)O)cc1Br
  · | 76 | 117 | -30
COCCn1c(CN2CCN(S(=O)(=O)c3ccc(C)cc3)CC2)nc2ccccc2c1=O
  113 | · | · | -11
COc1ccccc1CNC(=O)C1CCN(S(=O)(=O)c2ccc3c(c2)CCCN3C(C)=O)CC1
  102 | 87 | 111 | ·
Cc1ccc(NC(=O)c2cnc3sc(N4CCOCC4)nn3c2=O)cc1N(C)C
  95 | 97 | 99 | -13
Cc1ccc(NC(=O)c2cccc(NC3=NC4CS(=O)(=O)CC4S3)c2)cc1C (stereo unspecified)
  104 | · | · | -19
O=C(CC1SC(=O)NC1=O)Nc1ccccc1 (stereo unspecified)
  110 | · | · | -4
Cc1cccc(NS(=O)(=O)c2cn(C)cn2)c1C
  104 | · | · | 4
COc1ccc(NC2c3ccccc3C(=O)N2Cc2ccccc2)cc1 (stereo unspecified)
  102 | · | · | -11
Ic1ccc(Nc2nc3nonc3n3nnnc23)cc1
  · | 12 | 71 | -52
CC(NC1CCCC(C)C1C)C(=O)Nc1ccc2c(c1)OCCO2 (stereo unspecified)
  · | 92 | 85 | -22
Cc1c(C(=O)NCC2(N3CCN(C)CC3)CCCCC2)oc2cc(Br)ccc12
  100 | · | · | -12
Cc1ccc(C2=NC(c3ccc(F)cc3)=Nc3ccc(Cl)cc3N2)o1
  102 | 74 | 77 | -13
COc1ccc(CCNC(=O)CCn2c(=O)c3ccccc3n(CC(=O)Nc3cccc(C)c3)c2=O)cc1OC
  99 | 96 | 100 | -13
CCn1c(Cc2ccccc2)nnc1SCC(=O)Nc1ccccc1
  97 | 77 | 109 | -11
O=C(Cc1ccc(NC(=O)N2CCSc3ncccc32)cc1)NCc1cccc(Cl)c1
  106&102 | 84 | 105 | 0
COc1ccccc1C=Nc1ccc2c(c1)nc(C)n2Cc1ccccc1
  103 | 86 | 94 | ·
COc1ccc(/C=N/O)cc1COc1ccc(NC(C)=O)cc1
  103 | 91 | 91 | -21
Cc1ccccc1OCc1nnc2n1CC(C)S2 (stereo unspecified)
  99 | 87 | 99 | 1
CCc1cccc(NC(=O)CSc2nncn3c2cc2sccc23)c1
  103 | 61 | 128 | ·
Cc1c(Cl)cccc1NC(=S)NN(C)C
  100 | 86 | 96 | -29
O=C(CN1C(=O)COc2ccccc21)N1CCCC1
  103 | 88 | 94 | -8
CCn1cc(-c2cc(C(=O)O)c3ccccc3n2)cn1
  104 | 72 | 91 | -29
NS(=O)(=O)c1ccc(CCNCc2ccc(-c3cc(Cl)ccc3Cl)o2)cc1
  103 | · | · | 11
CC(C)CCn1c(O)c(N=NC(N)=O)c2ccccc21
  98 | 78 | 92 | -42
Cc1ccc(NC(=O)c2sc3ncnc(N(C)C4CCCCC4)c3c2C)c(C)c1
  102 | 85 | 131 | ·
CC1(C)CC(N2C(=O)c3ccccc3C2(O)Cc2ccccc2)CC(C)(C)N1 (stereo unspecified)
  · | 92 | 68 | -3
O=C(Nc1ccc(-c2nc3ccccc3[nH]2)cc1)c1ccc(-c2ccccc2)cc1
  101 | 82 | 96 | ·
O/N=C(\Cn1cncn1)c1ccc(Cl)cc1Cl
  100 | 94 | 96 | ·
COc1ccc(Nc2oc(/C=C/c3cc(OC)c(OC)c(OC)c3)nc2C#N)cc1
  101 | 81 | 100 | -18
Cn1ccnc1-c1ccc(-c2nccn2C)cc1
  96 | 83 | 93 | -10
CCOc1ccc(C(=O)NCCn2ccc3ccccc32)cc1OCC
  101 | 79 | 88 | 2
Cc1cc(C)c(NC(=O)CSc2nc(=O)n(Cc3ccco3)c3c2CCC3)c(C)c1
  102 | 21 | 133 | ·
C=CCNC(=S)N1CCNC(=O)C1CC(=O)Nc1cc(Cl)ccc1OC (stereo unspecified)
  107 | 107 | 106 | 9
CCCNC(=O)Cn1c2c(c(-c3ccccc3Cl)cc1=O)CCC2
  103 | 90 | 107 | ·
CC(C)N(C(=O)Cn1cc(SCC(=O)Nc2ccccc2C(F)(F)F)c2ccccc21)C(C)C
  108 | 80 | 105 | ·
Clc1ccc2nc(-c3ccccc3)cn2c1
  105 | 94 | 95 | 6
CNC(=O)c1cnc2cc(Cl)ccc2c1OC
  · | 78 | 78 | 4
COC(=O)c1c(NC(=O)c2cc(=O)c3c(C)cc(C)cc3o2)sc2c1CCCC2
  102 | 88 | 96 | -14
O=C(CCc1ccccc1)N/N=C/c1ccncc1
  96 | 76 | 88 | -34
CCOc1ccc2nnnn2n1
  97 | 86 | 100 | -9
Cc1cccc(S(=O)Cc2ccc(C(=O)NC3CCCCCC3)o2)c1 (stereo unspecified)
  102 | 98 | 112 | ·
COc1cccc(C(=O)OCc2ccccc2C#N)c1O
  · | 99 | 119 | 0
CCOc1ccc(NC(=O)c2cnn3c(C)cc(C)nc23)cc1
  100 | · | · | -12
O=C(NC1CCN(c2nccc(C(F)(F)F)n2)CC1)c1ccco1
  101 | 85 | 110 | ·

Next records.
Results follow in this order: GIV Gai3 FP | Sa growth 42C second temp | Sa growth 42C | HCMV UL50-53 inh
Clc1ccc(-c2ccc(CNc3ncn[nH]3)o2)c(Cl)c1
  106 | · | · | 7
CSc1ccc(C2c3c(oc4ccc(F)cc4c3=O)C(=O)N2c2ccc(C)cn2)cc1 (stereo unspecified)
  110 | 90 | 92 | -38
CC1CCc2[nH]nc(-c3nc(-c4ccc(Cl)cc4)no3)c2C1 (stereo unspecified)
  103 | · | · | 14
COc1cc(-c2nc(Cn3nnc(C(=O)Nc4cccc(Cl)c4)c3C)c(C)o2)cc(OC)c1OC
  103 | 107 | 101 | 10
Cc1nc(N2CCCC(C(=O)NCCN3CCCC3)C2)c2c(C)noc2n1 (stereo unspecified)
  100 | · | · | 5
COc1ccc(/C=N/N(C)C2=NCCN2)c(OC)c1OC
  103 | 96 | 90 | ·
CC1CCN(C(=O)Cn2c(=O)n(CC3CCC(C(=O)NC(C)C)CC3)c(=O)c3sccc32)CC1 (stereo unspecified)
  98 | 87 | 86 | ·
CN(/N=C/c1ccccc1)C1=NS(=O)(=O)c2ccccc21
  106 | 80 | 77 | ·
O=C(O)c1ccccc1N1C(=O)c2ccccc2C1=O
  · | 111 | 83 | -20
Oc1ccc(Br)cc1C=Nc1cccc(-c2nc3ccccc3o2)c1
  94 | 93 | 109 | -20
CC1=C(C(=O)OCc2ccc(C)cc2)C(c2cccc(F)c2F)CC(=O)N1 (stereo unspecified)
  107 | 87 | 103 | -10
CC1CCN(S(=O)(=O)N2CCCC(C(=O)Nc3ccccc3C(=O)c3ccccc3)C2)CC1 (stereo unspecified)
  97 | 92 | 102 | 6
N#C/C(=C/c1ccccc1)c1ccc(C#N)cc1
  100 | 100 | 100 | -38
Cc1cc(NS(=O)(=O)c2ccc3oc(=O)c4ncn(C)c4c3c2)ccc1Br
  105 | 90 | 107 | ·
Cc1cn2c(=O)cc(COC(=O)c3cccc(NC(=O)COc4ccccc4C)c3)nc2s1
  103 | 85 | 92 | ·
CC(C)Cc1cc(-c2nnc3sc(/C=C/c4ccco4)nn23)n[nH]1
  127 | · | · | -104
Fc1ccc(-c2nnc(Cc3nnc(-c4ccc(F)cc4)o3)o2)cc1
  105 | 105 | 107 | -6
COc1ccccc1NC(=O)Cc1nn(C)c(=O)c2ccccc12
  96 | 85 | 95 | -10
CC(=O)N1CCC(c2c[nH]c3ccccc23)CC1
  99 | 65 | 102 | -2
Cc1ccc(NC(=O)CSc2nc3ccccc3nc2Cc2ccccc2F)cc1F
  119 | 102 | 82 | 18

Sorted by count of non-hydrogen atoms (high to low): three of the compounds above
Results follow in this order: GIV Gai3 FP | Sa growth 42C second temp | Sa growth 42C | HCMV UL50-53 inh
Cc1ccc(NC(=O)CSc2nc3ccccc3nc2Cc2ccccc2F)cc1F
  119 | 102 | 82 | 18
Fc1ccc(-c2nnc(Cc3nnc(-c4ccc(F)cc4)o3)o2)cc1
  105 | 105 | 107 | -6
CC(=O)N1CCC(c2c[nH]c3ccccc23)CC1
  99 | 65 | 102 | -2

Continuation.
Results follow in this order: GIV Gai3 FP | Sa growth 42C second temp | Sa growth 42C | HCMV UL50-53 inh
COC(=O)c1sccc1S(=O)(=O)N(CC(=O)Nc1c(C)cccc1C)c1ccc(C)c(C)c1
  103 | 97 | 108 | ·
NCCSC12CC3CC(CC(C3)C1)C2
  103 | 96 | 88 | ·
CCOC(=O)C1=C(SCC)c2cc3c(n2C1=O)CCCC3
  106 | 76 | 115 | -116
COc1ccc(-c2csc(N)n2)cc1C
  102 | 100 | 102 | 7
O=c1oc(-c2ccc(Br)cc2)nc2sc3c(c12)CCCC3
  100 | · | · | -18
CC1CN(C(=O)Cn2nc(C(=O)O)c3ccccc3c2=O)CC(C)O1 (stereo unspecified)
  · | 92 | 99 | 6
CCN(CC)C(=O)c1ccc2nc(N)sc2c1
  97 | 102 | 103 | 13
COc1ccccc1C1CC(c2c(-c3ccccc3)c3cc(Cl)ccc3[nH]c2=O)=NN1C(=O)CN1CCCC1 (stereo unspecified)
  102 | · | · | -26
Cc1ccc(OCC(=O)Nc2nnc(SCc3cc(=O)n4cc(C)ccc4n3)s2)cc1
  109 | 93 | 94 | ·
Cc1ccc(Cl)cc1N(C)C(=O)c1cc2c(-c3ccc(Cl)cc3)nn(C)c2s1
  102 | 84 | 87 | ·
O=c1oc2c3c(c(Cl)cc2c2c1CCC2)OCN(Cc1ccccc1)C3
  100 | 78 | 84 | -48
CSCc1cccc(C(=O)O)c1
  · | 93 | 89 | -3
O=C(CNS(=O)(=O)c1ccccc1F)OCc1nc2ccccc2s1
  · | 90 | 100 | -18
CCOC(=O)c1cnc(N2CCCCC2)nc1C
  112 | 90 | 109 | -4
CCOc1ccc2oc(=O)cc(CN3CCN(c4cc(C)ccc4C)CC3)c2c1
  97 | 86 | 92 | -25
CCOC(=O)c1c(C)nc2ccccc2c1N
  102&102 | 78 | 82 | -29&-26
Cc1ccc(S(=O)(=O)c2c(CO)c(-c3ccccc3)nn2C)cc1
  100 | · | · | -12
COC(=O)COc1cc(O)c2c(=O)c(-c3ccc4c(c3)OCCO4)coc2c1
  · | 100 | 109 | 15
COc1cc(/C=C(\C#N)C(=O)Nc2ccc(C)cc2)ccc1OCc1cc(=O)n2nc(C)sc2n1
  102 | 99 | 103 | -7
COc1ccc(NC(=O)CC(C)(C)CC(=O)O)cc1OC
  100 | 87 | 104 | -13
O=S(=O)(c1cc(Br)c(Br)s1)N1CCN(c2ccccc2)CC1
  108 | 89 | 121 | ·
N#CC(=C=[N-])c1nc2ccccc2nc1-[n+]1ccccc1
  · | 87&85 | 94&103 | -40&-80
CCCn1c2ccccc2c2cnn(CC(=O)NCCc3cc(OC)ccc3OC)c(=O)c21
  106 | 98 | 105 | ·
CCOC(=O)c1cc2n(n1)CC(C)(C(=O)NC1CCCC1)N(c1ccc3c(c1)OCO3)C2=O (stereo unspecified)
  100 | · | · | 0
CC(C)Cn1c2ccccc2c2cc(C(=O)O)ccc21
  101 | 76 | 90 | -31
Nn1c(SCC(=O)c2ccc[nH]2)nnc1SCC(=O)c1ccc[nH]1
  · | 91 | 100 | -36
Cc1nc(N(C)C)ncc1C(=O)NCc1cccnc1
  105 | · | · | -6
COc1ccc(CCNC(=O)CCc2nnc3n(C)c(=O)c4sccc4n23)cc1OC
  113 | 98 | 100 | -5
CCN1C(=O)CSc2ccc(C(=O)NC(C)C)cc21
  100 | 92 | 117 | -14
Cc1ccccc1CN1c2ccccc2-c2nc(SCC(=O)NCc3ccccc3)ncc2S1(=O)=O
  106 | 93 | 82 | ·
Cc1cc2n(n1)CCCN2CC(=O)N1CCc2ccccc21
  110 | 89 | 104 | -18
CCOC(=O)c1c(N)sc(SC#N)c1-c1ccccc1
  · | 10* | 4.9* | -7
CCCCC1=NC2(CCCC2)C(=O)N1Cc1ccc(-c2ccccc2-c2nn[nH]n2)cc1
  · | 89&85 | 95&90 | -46&-64
CN(C)c1c(F)cc(C(=O)NC(=O)NCc2cccnc2)cc1F
  108 | 88 | 93 | -36
CC(C)NC(=O)C1CCCN(S(=O)(=O)c2ccc3c(ccn3C)c2)C1 (stereo unspecified)
  101 | 85 | 80 | ·
CC1CCN(CC(=O)Nc2ccc(S(=O)(=O)N3CCCCC3)cc2)CC1
  100 | 107 | 89 | 1
Cc1cccc(C)c1NC(=O)N1CCC(C(N)=O)(N2CCCCC2)CC1
  99 | 88 | 106 | -13
COc1ccc(C2C3=C(CC(C)(C)CC3=O)OC3=C2C(=O)CC(C)(C)C3)cc1Cn1nnc2ccccc21
  103 | · | · | -12
CC(=O)Nc1ccc(NC(=O)CSc2nc3ccccc3nc2N2CCOCC2)cc1
  106 | 87 | 94 | -36
COc1ccc(CN(C(=O)c2cc(=O)c3ccccc3o2)C2CCS(=O)(=O)C2)cc1OC (stereo unspecified)
  107 | 88 | 106 | -4
